TRPV1 potentiator: potentiators of human vanilloid receptor 1 (TRPV1); Q8NER1; TRPV1-expressing cells, Fluo-8 calcium influx, capsaicin EC20 potentiation; host cell line not named in the record; control for the full effect not named in the record; potentiation, % at 8.33 µM; 320,000 compounds, 0.02% hits; AID 540277; active means potentiation above 80%; inconclusive means 30% to 80%; inactive means below 30%; further: 0% is about no effect
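TRPV1-expressing cells were cultured overnight at 35.5C and loaded with Fluo-8 calcium dye for 40 to 90 min at room temperature. After a 10 s baseline, compound was added and calcium influx was read kinetically for 3 min (ex 480/em 520 nm).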
CtBP-E1A inh: blocks the CtBP interaction with E1A. AlphaScreen GST-E1A/His-CtBP binding, 1536-well; active compounds read low; control for the full effect not named in the record. activity change, % (concentration not given with the values). 340,000 compounds, 0.49% hits. AID 651724; in the data active means activity change below about -65%; inconclusive means about -30% to -65%; inactive means above about -30%; further: on the % scale 0 is the no-effect control and ±100 the full control effect
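GST-E1A and His-tagged CtBP (125 nM each as 5X stock) were preincubated with pin-transferred compound for 2 h at 37 °C in the dark, then glutathione donor and nickel acceptor beads were added for 1 h before AlphaScreen reading.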
TRPML1 agonist: agonists of human TRPML1 channel; Q9GZU1; TRPML1-expressing cells, Ca2+ dye fluorescence, FDSS; host cell line not named in the record; reference of the full effect not given here; activation, % (concentration not given with the values); 410,000 compounds, 0.12% hits; AID 624414; in the data active = activation above about 50%; inconclusive = about 30% to 50%; inactive = below about 30%; further: 0% is about no effect; the text of the record puts the active cut at 80%
Target sequence (Q9GZU1 whole entry, looked up): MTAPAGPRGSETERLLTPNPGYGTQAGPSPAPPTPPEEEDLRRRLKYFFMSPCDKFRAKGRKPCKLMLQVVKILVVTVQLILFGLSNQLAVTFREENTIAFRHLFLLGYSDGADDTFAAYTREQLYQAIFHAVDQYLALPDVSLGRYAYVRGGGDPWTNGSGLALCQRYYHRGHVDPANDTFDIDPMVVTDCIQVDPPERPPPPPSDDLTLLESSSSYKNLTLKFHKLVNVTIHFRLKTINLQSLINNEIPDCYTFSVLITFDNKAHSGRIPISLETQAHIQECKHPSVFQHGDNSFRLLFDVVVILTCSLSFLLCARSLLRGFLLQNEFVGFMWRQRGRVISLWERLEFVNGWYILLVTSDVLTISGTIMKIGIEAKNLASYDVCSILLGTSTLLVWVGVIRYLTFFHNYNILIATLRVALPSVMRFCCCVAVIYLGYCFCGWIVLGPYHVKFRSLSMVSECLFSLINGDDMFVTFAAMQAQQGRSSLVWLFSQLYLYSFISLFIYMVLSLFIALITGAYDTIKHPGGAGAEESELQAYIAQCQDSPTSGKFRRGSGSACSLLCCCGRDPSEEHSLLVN
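TRPML1-DL cells, Tet-induced overnight (~16 h, 37 degrees C), loaded 45-90 min at room temperature with Ca8 no-wash calcium dye plus quencher. FDSS fluorescence: 10 s baseline, compound pin-transfer, 110 s agonist read, then EC80 54-4 (4uM final) and 110 s antagonist read.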
D2 potentiator: human D2 receptor positive allosteric modulation | P14416 | DiscoveRx D2 beta-arrestin cells, luminescence, 90 min; 100% = 57 uM dopamine signal | potentiation, % (test concentration not listed) | 360,000 compounds, 0.23% hits | AID 624464; active = potentiation of 50% or more; inconclusive = 30% to 50%; inactive = 30% or less;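 further: compound concentration not given in the record; tested on top of an EC20 dose of dopamine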
Target sequence (P14416 whole entry, looked up): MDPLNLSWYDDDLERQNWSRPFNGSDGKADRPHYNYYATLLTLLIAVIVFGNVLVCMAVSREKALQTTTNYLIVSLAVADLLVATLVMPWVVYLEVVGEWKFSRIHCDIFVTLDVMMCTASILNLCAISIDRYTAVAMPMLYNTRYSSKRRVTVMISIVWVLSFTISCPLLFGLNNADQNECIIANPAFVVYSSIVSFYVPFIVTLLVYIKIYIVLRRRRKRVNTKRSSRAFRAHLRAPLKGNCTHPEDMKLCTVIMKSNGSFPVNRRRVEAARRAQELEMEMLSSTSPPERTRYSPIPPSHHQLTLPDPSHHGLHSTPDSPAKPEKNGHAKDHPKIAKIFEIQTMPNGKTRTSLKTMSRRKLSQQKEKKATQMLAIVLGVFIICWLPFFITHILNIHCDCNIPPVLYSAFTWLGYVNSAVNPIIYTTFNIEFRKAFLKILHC
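PathHunter beta-arrestin assay in DiscoveRx D2 cells. Compounds were added with an EC20 of dopamine (50 nM final) for 90 min at 37 deg C. Luminescence was read 1 h after detection reagent, with 57 uM dopamine as the EC100 control.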
Six1-Eya2 inh: blocks human Six1 binding to Eya2 | AlphaScreen GST-Six1/His-Eya2 binding, biochemical; active compounds read low; control for the full effect not named in the record | Q15475+O00167 | 360,000 compounds, 0.56% hits | activity change, % (no concentration beside the values); in the data active = activity change below about -65%; inconclusive = about -30% to -65%; inactive = above about -30%; further: on the % scale 0 is the no-effect control and ±100 the full control effect
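AlphaScreen with GST-Six1 and His-Eya2 (5X mix: 250 nM and 500 nM), glutathione donor and nickel acceptor beads; buffer 50 mM Tris pH 8.0, 300 mM NaCl, 1 mM TCEP; 1 h at 37 C in the dark.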
TRPML1 blocker: inhibitors of human TRPML1 channel. activity change, negative = inhibition, % (no concentration beside the values). 390,000 compounds, 0.02% hits. TRPML1-inducible cells, Ca2+ dye fluorescence, FDSS; active compounds read low; inhibition of EC80 agonist-evoked calcium signal; in the data active means activity change below about -50%; inconclusive means about -30% to -50%; inactive means above about -30%;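 further: stimulus is agonist 54-4 at its EC80 concentration; on the % scale 0 is the no-effect control and ±100 the full control effect; compound concentration not given in the record; the text of the record puts the active cut at -80%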
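Calcium fluorescence in TRPML1-DL cells induced overnight with Tet: a 110 s read after compound pin addition, then a 110 s antagonist read after challenge with 54-4 at 4 uM final (EC80).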
* = called active by the depositor; ? = inconclusive; / = not tested or not shown; & = joins results of further samples.

Structure	TRPML1 blocker	D2 potentiator	TRPML1 agonist	CtBP-E1A inh	TRPV1 potentiator	Six1-Eya2 inh
Cc1ccc(N2CCN(C(=O)c3ccccc3NC(=O)C3CC=CCC3C(=O)O)CC2)cc1 (stereo not drawn)	-3	-6	-0.5	9	?	-6
CC(C)N(Cc1nc(-c2ccccc2)no1)C(=O)CN(C)S(=O)(=O)c1ccccc1	1	0	-0.3	-3	-38	9
CC(C)CN(CC(C)C)S(=O)(=O)N1CCC(C(=O)N2CCc3ccccc3C2)CC1	14	-6	0.6	-3	10	4
Cc1cc(Cl)ccc1OCc1cn2cccnc2n1	4	0	1.7	-3	-23	-4
COc1ccc([C@@H]2CC=C(C(=O)O)[C@H](c3ccc(C)cc3)N2S(=O)(=O)c2ccc(C)cc2)cc1OC	-6	/	0.0	0	/	3
CC(C)C[C@H](NC(=O)C1(c2ccccc2)CCN(C(=O)[C@H]2CSCN2C(=O)OC(C)(C)C)CC1)C(=O)O	-18	0	-0.4	9	0	11
O=C(O)CCSc1nc2ccccc2c(=O)[nH]1	6	-10	-0.2	4	27	-1
CCC(c1nnnn1Cc1ccc(OC)cc1)N1CCN(c2ccc(OC)cc2)CC1 (stereo not drawn)	26	-10	1.8	4	-19	-16
CCCc1cc(=O)[nH]c(SCC(=O)N(CCC#N)c2ccc3c(c2)OCCO3)n1	-1	0	0.8	-26	11	2
CCCCOC(=O)/C=C/c1ccc(OC(=O)OC)c(OC(=O)OC)c1	10	-9	0.4	-6	0	-13
CCSc1oc(-c2ccco2)nc1S(=O)(=O)c1ccccc1	3	-7	-0.1	-1	1	-2
CC1Cc2cc(S(=O)(=O)NCc3ccccc3)ccc2N1C(=O)C1CC1 (stereo not drawn)	5	-9	-0.4	-5	-5	1
COCC(C)n1c(C)cc(C(=O)CN2C(=O)NC(Cc3c[nH]c4ccccc34)C2=O)c1C (stereo not drawn)	6	11	0.1	-1	0	-16
O=C(CCCOc1ccccc1)N1CCN(c2ccc(F)cc2)CC1	21	-5	1.9	-5	-16	4
CS(=O)(=O)n1nc(OC(=O)c2cccs2)cc1N	-12	-4	-0.3	2	-9	?
Cc1ccccc1CSc1[nH]c(=O)ncc1C	-16	-6	0.0	-3	-1	1
Cc1onc(-c2ccccc2)c1C(=O)N/N=C/C(Br)=C/c1ccccc1	43	-11	1.2	-5	6	-6
COc1ccccc1CNc1nc(NC(C)C)nc2cc(-c3ccccc3)sc12	/	-19	-0.5	-11	/	-2
Cc1cccc(-n2ccnc2SCC(=O)N2CCCc3ccccc32)c1C	31	-20	3.3	-16	-12	-24
O=C(NCc1ccco1)/C(=C/c1cccnc1)NC(=O)c1ccco1	-3	-8	-0.1	5	/	3
COc1ccccc1N1CCN(C(=O)CCc2c[nH]c3ccccc23)CC1	-5	-1	-0.7	-1	-4	-13
COc1nc(N)nc2nc[nH]c12	6	-4	-0.5	3	4	4
Cc1sc2nc(CN3CCOCC3)[nH]c(=S)c2c1C	-1	-7	1.6	-3	0	-8
CCCN(CCC)CC(O)CN1C(=O)N(CN2C(=O)N(CC(O)CN(CCC)CCC)C(=O)C2(C)C)C(C)(C)C1=O (stereo not drawn)	27	-5	0.4	7	3	14
COc1ccc(CC(=O)Nc2c3c(nn2C(C)(C)C)CS(=O)C3)cc1 (stereo not drawn)	3	0	-0.1	2	-1	3
COc1ccc(NC(=O)c2cc(-c3ccc(C)o3)nc3ccccc23)c(OC)c1	15	17	2.2	/	/	-2
CN1/C(=C/C(=O)c2ccc(Cl)cc2)Sc2cc3c(cc21)OCO3	-25	?	0.5	7	-2	7
O=C(Nc1nnc(-c2ccc(Cl)cc2)o1)C1CCCCC1	11	-2	-0.8	-1	13	-14
COc1ccc(NC(=O)NN2CCN(C)CC2)cc1	4	12	0.3	5	9	6
O=C(NCCC(F)(F)F)c1cccc2c(-c3ccc(F)c(F)c3)coc12	/	-5	5.5	16	/	2

An excerpt from above, reduced to TRPML1 blocker and CtBP-E1A inh:
| structure | TRPML1 blocker | CtBP-E1A inh |
| --- | --- | --- |
| Cc1onc(-c2ccccc2)c1C(=O)N/N=C/C(Br)=C/c1ccccc1 | 43 | -5 |
| COc1ccccc1CNc1nc(NC(C)C)nc2cc(-c3ccccc3)sc12 | / | -11 |
| Cc1cccc(-n2ccnc2SCC(=O)N2CCCc3ccccc32)c1C | 31 | -16 |

(more compounds)
Structure	TRPML1 blocker	D2 potentiator	TRPML1 agonist	CtBP-E1A inh	TRPV1 potentiator	Six1-Eya2 inh
Cn1cc(C(=O)Nc2ccc(Cl)c(Cl)c2)cn1	0	-4	0.7	3	/	-1
Cc1ccc(S(=O)(=O)N2CCOCC2)cc1NC(=O)COC(=O)Cc1cccs1	-5	0	0.0	-11	-4	4
Cc1ccc(NC(=O)CSc2nc3ccccc3nc2N2CCOCC2)c(C)c1	0	5	-0.1	3	-14	3
O=C(NCc1cccnc1)C1CC(=O)N(C2CCCCC2)C1 (stereo not drawn)	-6	-17	-0.4	11	-14	-1
CC(C)CNC(=O)CC(=O)N/N=C/c1cccs1	9	-8	-0.6	5	-1	2
C[C@H](NC(=O)[C@H]1N2C(=O)c3ccccc3C2SC1(C)C)C(=O)N1CCC[C@H]1C(=O)O (stereo partly drawn)	/	-21	/	8	?	18
C=CCn1c(C)cc(-c2csc(NC(=O)CCc3nc4ccccc4c(=O)[nH]3)n2)c1C	-7	-15	0.1	-2	19	-8
C=CCn1c(CCCNC(=O)CCC)nc2ccccc21	-22	-9	0.2	11	19	0
O=C(c1ccc2ccccc2n1)N1CCN(Cc2c(F)cccc2Cl)CC1	-3	-10	0.7	0	6	-4
CCC(=O)N1CCN(c2ccccc2NC(=O)Cc2ccccc2)CC1	2	-18	0.5	-2	/	-2
Cc1cc(/C=C2\SC(=S)N(C)C2=O)c(C)n1-c1cccc(O)c1	/	-2	/	2	2	0
Nc1cc(-c2ccco2)no1	-9	11	2.3	2	?	3
OCc1ccccc1Cn1ccnc1	-1	-5	-0.6	-9	/	-18
COC1=C/C(=C/c2c(N)n3nc(CC(=O)N4CCCC4)sc3nc2=O)C=CC1=O	-12	-9	2.2	-6	-3	-13
CCCCN(CC)C(=O)C1CCC(CNS(=O)(=O)c2cccc3nsnc23)CC1 (stereo not drawn)	-13&-15	-6	0.0&1.4	-6	-11	5
CN1CCN(c2cc(=O)n(Cc3ccc(F)cc3)c(=O)[nH]2)CC1	16	-3	0.3	-8	16	9
COc1ccc(S(=O)(=O)N2CCCC2CNC(=O)C(=O)NCc2cccs2)cc1 (stereo not drawn)	3	20	-0.9	-2	-2	1
C=CCN(C#N)c1nc(OC)nc(N2CCCC2)n1	-8	5	-0.7	-1	-2	6
COc1ccc(/C=N/N=C2/C(=O)Nc3ccccc32)cc1O	68	0	2.0	/	?	-14
COc1ccccc1C(=O)NNC(=O)c1ccccc1F	15	-2	-0.1	1	1	6
Cc1nn(CC(=O)Nc2ccc(Cl)cc2)c(=O)c2cc(-c3ccccc3)nn12	1	-4	0.2	-12	-7	1
CCOC(=O)[C@]12CCC=C1N(CCC1=CCCCC1)C(=O)[C@H](CC(=O)N1CCSCC1)C2	/	/	-0.9	5	/	-2
Cc1ccc(CNC(=O)c2cc3ccccc3oc2=O)cc1	-6	-23	0.1	/	/	1
CCOC(=O)c1c(C)c(C(=O)O)n(C)c1C	6	-7	-0.3	-1	-4	0
Cn1c(=O)c2c(nc(NCCc3ccccc3)n2CC(=O)NCCc2ccccc2)n(C)c1=O	-19	-4	-1.5	4	-5	8
COC(=O)C1C(c2ccc(N(C)C)cc2)C(C(=O)OC)S(=O)(=O)CS1(=O)=O (stereo not drawn)	-3	-3	-0.3	0	-10	5
Cc1ccc(C)c(Cn2nc(-c3ccccc3)ccc2=O)c1	-6	-8	2.0	10	-8	-2
COc1ccc(OCC(O)CN2CCCCCC2)cc1 (stereo not drawn)	-9	-4	-0.8	2	6	0
COc1ccc(C)cc1NC(=O)C(OC(=O)Cn1cnc2c1c(=O)n(C)c(=O)n2C)c1ccccc1 (stereo not drawn)	12	-12	-1.1	5	10	2
CCC(C)(C(=O)NC1CCCC1)N(C(=O)c1ccccn1)c1ccc(C)cc1 (stereo not drawn)	-5	-8	0.1	0	0	3
Cc1noc(NS(=O)(=O)c2ccc(N/C=C/C(=O)c3ccncc3)cc2)c1C	0	-7	0.1	-29	3	-24
Cc1cc2ccccc2c(=O)n1CC(=O)NCC(=O)N1CCN(c2ccccc2)CC1	-25	-7	0.7	0	28	-1
CCOC(=O)c1ccccc1-c1csc(N)n1	-9	-3	0.9	0	-3	1
C=CC[C@@H](Cc1ccc(F)cc1)C(=O)OC[C@H]1CCCN1C(=O)[C@@H](CC=C)CC(=O)N[C@H](CO)Cc1ccccc1	33	1	0.7	-23	/	-9
COCCNc1nc2nonc2nc1N1CCC(N(C)C)C1 (stereo not drawn)	36	-3	0.7	14	?	0
O=S1(=O)CC(N2CCC(Cc3ccccc3)CC2)CN1Cc1ccc(F)cc1 (stereo not drawn)	15	-8	0.7	-2	/	-8
CC(C)C[C@H](NC(=O)c1nc[nH]c1C(=O)N(C)Cc1ccccc1)C(=O)OCc1ccccc1	-2	-6	-0.6	-1	3	-11
O=S(=O)(c1ccc(F)cc1)N1CCC2(CC1)OCCN2S(=O)(=O)c1cccs1	2	-7	0.4	0	-3	-11
COc1cccc(/C=C/C(=O)NCC2CCCCC2)c1	11	-46	-0.8	2	/	1
Cc1ccc2c(cnn2C(=O)CCC(=O)NC2CCCC2)c1	1	-6	0.2	0	12	9
CCCCn1c(N)c(N(CC(C)C)C(=O)C2CC(=O)N(Cc3ccco3)C2)c(=O)[nH]c1=O (stereo not drawn)	-10	3	-0.3	-15	3	-5
Clc1ccc(COn2c(-c3ccc(Cl)cc3Cl)nc3ncccc32)cc1	8	9	-0.2	-4	-35	-8
O=C1CN(C(=O)COc2ncnc3ccccc23)c2ccccc2N1	-4	-16	0.8	-1	1	-1
c1ccc(-c2cc3c(N4CCCC4)ncnc3s2)cc1	10	-8	3.3	2	-11	6
CCOC(=O)Cc1csc(NC(=O)c2cc(=O)c3ccccc3o2)n1	-4	-9	0.0	/	-3	7
COc1ccc(NC(=O)c2cccc(S(=O)(=O)Nc3ccc(Br)cc3)c2)cn1	-3	-8	-0.2	-1	3	-4
COc1ccc(S(=O)(=O)N2CCN(C(=O)C3CCCO3)CC2)cc1 (stereo not drawn)	0	-1	0.1	7	8	6
CC(C)NCC(O)COC1CCC(C(C)(C)C)CC1 (stereo not drawn)	-7	-12	3.9	/	-9	-7
CC(C)COc1ccc(C(=O)Nc2ccc(NC(=O)c3ccco3)cc2)cc1	-20	-3	-0.1	1	-3	2
CCN(CC(=O)Nc1ccc(C(=O)Nc2ccc(OC)cc2)cc1)Cc1nc2ccccc2c(=O)[nH]1	-9	-9	-0.4	/	0	-3
